KCNQ2 inh: KCNQ2 channel blockers in CHO-K1 cells – cell-based, FluxOR thallium flux, B-score, primary screen (AID 2156); B-score at 10 µM; O88943; 20 min; hits give low values; only compounds with negative scores are shown here; some inactives read as strong as hits; hit rate 1.1% among 310,000;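 active means fluorescence ratio B-score at most minus 3 library SDs, with starting brightness B-score within 2 library SDs, cut at about -5.5 in these data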
Target sequence (O88943 whole entry, looked up): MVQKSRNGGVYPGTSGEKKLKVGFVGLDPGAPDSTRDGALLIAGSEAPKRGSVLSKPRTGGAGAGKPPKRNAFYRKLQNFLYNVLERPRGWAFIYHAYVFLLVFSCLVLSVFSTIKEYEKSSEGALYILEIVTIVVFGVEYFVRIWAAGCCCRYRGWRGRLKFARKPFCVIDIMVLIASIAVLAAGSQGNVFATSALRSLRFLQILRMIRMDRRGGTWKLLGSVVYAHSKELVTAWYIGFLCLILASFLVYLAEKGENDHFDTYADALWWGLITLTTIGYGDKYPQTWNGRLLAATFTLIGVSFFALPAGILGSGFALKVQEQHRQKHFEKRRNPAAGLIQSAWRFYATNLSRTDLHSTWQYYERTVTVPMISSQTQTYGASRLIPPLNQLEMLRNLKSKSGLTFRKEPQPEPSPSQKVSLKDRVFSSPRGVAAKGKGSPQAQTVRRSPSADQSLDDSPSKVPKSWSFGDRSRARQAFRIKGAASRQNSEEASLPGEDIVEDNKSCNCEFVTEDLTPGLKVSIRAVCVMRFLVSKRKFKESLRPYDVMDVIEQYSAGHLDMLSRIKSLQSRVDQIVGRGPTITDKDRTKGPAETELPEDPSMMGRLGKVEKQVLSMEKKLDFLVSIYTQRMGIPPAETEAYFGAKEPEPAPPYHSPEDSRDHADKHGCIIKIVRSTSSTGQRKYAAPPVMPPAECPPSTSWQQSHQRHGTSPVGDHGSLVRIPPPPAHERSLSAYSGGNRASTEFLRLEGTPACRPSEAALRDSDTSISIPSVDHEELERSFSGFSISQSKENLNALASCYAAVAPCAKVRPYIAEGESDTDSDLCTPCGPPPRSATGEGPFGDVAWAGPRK
KCNQ2 inh baseline: second read-out of KCNQ2 inh, no call of its own (marks repeat the call); B-score; measured here: initial fluorescence intensity artifact check;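 brightness before thallium and not channel activity; 0 = typical well and far values either way flag optical interference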
Starred values were filed as active, the others as inactive; i = inactive. Not all compounds are listed. The share of hits here may be higher or lower than overall.

KCNQ2 inh	KCNQ2 inh baseline	Compound
i	-0.25	CCC(C(=O)N1CCc2cc(OC)c(OC)cc2C1)c1ccccc1 (configuration not stated)
i	-1.1	O=C(Nc1ccccc1C(=O)N/N=C/c1ccncc1)c1ccccc1
i	0.16	COC(=O)c1ccc(N(CC(=O)NC2CCCC2)C(=O)CNC(=O)c2cccs2)cc1
i	-0.82	Cc1ccc(NS(=O)(=O)c2c(C(=O)N3CCCCCC3)c(C)n(C)c2C)c(Cl)c1
i	0.09	Cn1c(CN2CCOCC2)nnc1SCC(N)=O
i	-0.29	COc1cc(C=O)ccc1OC(=O)Nc1ccccc1
i	-1	S=C(c1ccc2c(c1)OCO2)N1CCOCC1
i	1.1	O=C(CCCN1C(=O)/C(=C/c2ccccc2Cl)SC1=S)NNC(=O)c1ccccc1Cl
i	-0.13	COc1ccccc1/C=C/c1nc(S(=O)(=O)c2ccccc2)c(NCCN(C)C)o1
i	-0.42	COn1c(=O)c(=O)n(OC)c2ccccc21
i	-0.5	COCCN(C(=O)CCC(=O)Nc1ccccn1)C(C(=O)NC(C)C)c1ccc(C)cc1 (configuration not stated)
i	0.02	COc1cccc(C(=O)COC(=O)C2CC3CCCC(C2)C3=O)c1 (configuration not stated)
i	0.8	Cc1ccc2nsnc2c1S(=O)(=O)NCc1ccncc1
i	0.14	O=c1c2ccccc2n(Cc2cccc(F)c2)c(=O)n1C1CCCC1
i	-0.62	COC(=O)CCC/C=C1/SCC(NC(=O)c2ccccc2)C1O (configuration not stated)
i	0.73	Cc1ccc2nc(-c3ccc(NS(=O)(=O)c4ccccc4)cc3)sc2c1
i	0.88	CCOC(=O)c1nnn(-c2nonc2-n2cccc2)c1CCl
i	-0.03	COc1ccc(N(CC(=O)NCCSCc2ccc(Cl)cc2)S(C)(=O)=O)cc1Cl
-6.5*	-0.16*	CC1CC(C)CN(C(=O)C(Cc2ccccc2)n2cccc2)C1 (configuration not stated)
i	-0.61	Cc1ccc(/C=C2\C(=N)N3N=C(CC(=O)N4CCOCC4)SC3=NC2=O)o1
i	-0.11	COC(=O)COc1ccc(S(=O)(=O)Nc2ccccc2SC)cc1
i	0.68	CC(=O)OCCN1C(=O)c2ccc(-c3nc4ccccc4c(=O)o3)cc2C1=O
i	1.2	CC(NC(=O)c1ccc(OC2CCN(Cc3ccccn3)CC2)cc1)c1ccccc1 (configuration not stated)
i	1.6	NNC(=O)c1cccc(S(=O)(=O)Nc2cc(Cl)ccc2Cl)c1
i	-0.02	C/C(N)=C(/C#N)C(=O)COC(=O)CCSc1ccccc1Cl
i	2.1	CCC1CCCCN1C(=O)N[C@@H](Cc1ccccc1)C(=O)O (some centres not stated)
i	1.1	Cc1cc2nc(/C(C#N)=C/c3ccncc3)[nH]c2cc1C
i	-0.06	COc1cccc(CN2C(=NC(=O)CCC3CCCC3)SC3CS(=O)(=O)CC32)c1 (configuration not stated)
i	-0.26	COc1ccc(CCC(=O)OCC(=O)Nc2ccccc2OC(F)F)cc1OC
i	0.5	c1ccc(CNc2nc(-c3cccnc3)cs2)cc1
i	0.76	COc1ccc(N(CC(=O)NCCc2ccccc2)C(=O)CCC(=O)Nc2ccccn2)cc1
i	0.21	O=[N+]([O-])c1cc(-c2cnc3ccccc3n2)ccc1Cl
i	-0.22	Cc1cc(-c2nnc(CCC(=O)N3CCN(Cc4cccc(F)c4)CC3)o2)c(C)o1
i	1.3	COc1ccc(CCNCC(O)COc2cccc(Br)c2)cc1OC (configuration not stated)
i	0.01	CCCCn1c(N)c(N(CC)C(=O)c2ccccc2C)c(=O)[nH]c1=O
i	-0.02	Cc1ccc(N2C(=O)C(CC(=O)Nc3cccc(F)c3)N(CCc3ccncc3)C2=O)cc1 (configuration not stated)
i	-2	COc1ccccc1NS(=O)(=O)c1cccc(C(=O)NCC(c2ccc(F)cc2)N2CCOCC2)c1 (configuration not stated)
i	1.1	COc1cc(NC(=O)c2cccc(F)c2)cc(OC)c1OC
i	-0.94	CC(CNC(=O)c1ccc2c(c1)OCO2)c1ccc([N+](=O)[O-])cc1 (configuration not stated)
i	1.5	O=C(COc1nnnc2ccccc12)N1CCCc2ccccc21
i	0.13	Cc1ccc(S(=O)(=O)Nc2cc3c(cc2N2CCOCC2)n(C)c(=O)c(=O)n3C)cc1
i	1.8	COc1ccc(NC(=O)c2ccc(C)cc2)cc1
i	0.93	O=C(NCCCn1ccnc1)/C(=C\c1ccco1)NC(=O)c1ccco1
i	-2.3	C=CCn1cc(C(=O)c2cc(Br)ccc2O)cc(C#N)c1=O
i	1.3	NC(=O)c1ccc(/C=N/O)nc1
i	0.13	Cc1cc(N2C(=O)CC(Cc3ccc(Cl)cc3)C2=O)no1 (configuration not stated)
i	-0.85	Cc1ccc(CN2C(=O)c3ccccc3Sc3ccc(C(=O)NCCN4CCOCC4)cc32)cc1
i	-0.8	CCN(CC)S(=O)(=O)c1cc(C(=O)Nc2nncs2)c(Cl)cc1Cl
i	1.7	O=C1NCCCC1C(=O)Nc1cccc(C(F)(F)F)c1 (configuration not stated)
i	0.72	CCCCOc1ccccc1NC(=O)c1scc2c1OCCO2

Continued:
KCNQ2 inh	KCNQ2 inh baseline	Compound
i	2	Cc1cc(C)c(S(=O)(=O)NCCc2ccncc2)c(C)c1
i	-0.08	O=C(CNS(=O)(=O)c1c(Cl)cccc1Cl)OCc1csc(-c2ccccc2)n1
i	-1.4	Nc1nc(Cl)nc(N(c2ccccc2)c2ccccc2)n1
i	1	O=C(Nc1ccccc1C(=O)NCC1CCCO1)c1ccco1 (configuration not stated)
i	0.08	CC(=O)Nc1ccc(OCCOc2ccccc2C(C)=O)cc1
i	-0.15	Cc1cc[n+](-c2nc3ccccc3nc2[N-]S(=O)(=O)c2cccs2)cc1C
i	-0.09	C=CCOc1ccccc1CN1CCC(n2nccc2NC(=O)C2CCOC2)CC1 (configuration not stated)
i	0.91	CC1=C(C(=O)OC(C)C)C(c2cccc(F)c2)N2C(=O)C(C)SC2=N1 (configuration not stated)
i	-0.25	Cc1ccc(OCCn2c(=S)[nH]c3ccccc32)c(C(C)C)c1
i	1.8	CC(Sc1nn(-c2ccc(Cl)cc2)c(=S)s1)C(=O)NCC1CCCO1 (configuration not stated)
i	1	CCOc1cccc(C=NCCc2ccc(OC)c(OC)c2)c1O
i	-0.28	CC(=O)c1cn(Cc2ccccc2)c(=O)n(Cc2ccc(F)cc2)c1=O
i	-0.29	COc1ccc(-n2cnnc2SCc2cnc(-c3ccccc3)s2)cc1
i	0.92	COc1ccccc1OCCC(=O)OCC(=O)Nc1ccc(S(=O)(=O)N2CCOCC2)cc1
i	2.6	COc1ccc(S(=O)(=O)N2CCC(Nc3ccccc3Cl)CC2)cc1
i	4.3	CCN(CC)c1ccc(/C=c2/sc3nnc(-c4ccccc4C)n3c2=O)cc1
i	-0.3	CCn1c(CCc2ccccc2)nc2ccccc21
i	0.36	c1ccc(CN2CCN(Cc3nnc(-c4ccccc4)o3)CC2)cc1
i	-1.3	C=CCc1cccc(OC)c1OCCOCCn1ccnc1
i	-0.37	CCN1CCc2c(C#N)c(N3CCCCC3)nc(N3CCOCC3)c2C1
i	2.9	O=S(=O)(Nc1nc2ccccc2s1)c1cnc(Cl)c(Br)c1
i	0.23	CCCCn1nc(C(=O)Nc2ccc(S(=O)(=O)Nc3ncccn3)cc2)c2ccccc2c1=O
i	-0.22	CN(C)CCCn1c(N)c(S(=O)(=O)c2ccccc2)c2nc3ccccc3nc21
i	0.56	Cc1cccc(N2C(=O)SC(N(C)c3ccccc3)C2=O)c1 (configuration not stated)
i	1.1	COC(=O)C(C)Sc1ccc2nnc(-c3ccccc3)n2n1 (configuration not stated)
i	0.01	O=C(NC1CCCCC1)C(c1ccccc1)N1CCc2ccccc21 (configuration not stated)
i	-0.1	COc1ccc(C)cc1NC(=O)c1cccc(C(=O)Nc2cc(C)ccc2OC)n1
i	1.4	O=C1c2ccccc2C(=O)N1CCCCN(C(=O)c1ccco1)c1ccc(Cl)cc1
i	0.07	COC(=O)CCC(=O)OC1(C)C(=O)C2=CN(C(CO)CO)C(c3ccc(OC)cc3)=CC2=C(Br)C1=O (configuration not stated)
-5.8*	-0.83*	COc1ccc(S(=O)(=O)N2CCCCCC2)cc1C(=O)N(C)Cc1ccccc1F

Rewritten with two lines to a compound: entries from further up
Order of results: KCNQ2 inh | KCNQ2 inh baseline
> COn1c(=O)c(=O)n(OC)c2ccccc21
  i | -0.42
> COCCN(C(=O)CCC(=O)Nc1ccccn1)C(C(=O)NC(C)C)c1ccc(C)cc1 (configuration not stated)
  i | -0.5
> COc1cccc(C(=O)COC(=O)C2CC3CCCC(C2)C3=O)c1 (configuration not stated)
  i | 0.02
> Cc1ccc2nsnc2c1S(=O)(=O)NCc1ccncc1
  i | 0.8
> O=c1c2ccccc2n(Cc2cccc(F)c2)c(=O)n1C1CCCC1
  i | 0.14
> COC(=O)CCC/C=C1/SCC(NC(=O)c2ccccc2)C1O (configuration not stated)
  i | -0.62
> Cc1ccc2nc(-c3ccc(NS(=O)(=O)c4ccccc4)cc3)sc2c1
  i | 0.73
> CCOC(=O)c1nnn(-c2nonc2-n2cccc2)c1CCl
  i | 0.88
> COc1ccc(N(CC(=O)NCCSCc2ccc(Cl)cc2)S(C)(=O)=O)cc1Cl
  i | -0.03
> CC1CC(C)CN(C(=O)C(Cc2ccccc2)n2cccc2)C1 (configuration not stated)
  -6.5* | -0.16*
> Cc1ccc(/C=C2\C(=N)N3N=C(CC(=O)N4CCOCC4)SC3=NC2=O)o1
  i | -0.61
> COC(=O)COc1ccc(S(=O)(=O)Nc2ccccc2SC)cc1
  i | -0.11
> CC(=O)OCCN1C(=O)c2ccc(-c3nc4ccccc4c(=O)o3)cc2C1=O
  i | 0.68
> CC(NC(=O)c1ccc(OC2CCN(Cc3ccccn3)CC2)cc1)c1ccccc1 (configuration not stated)
  i | 1.2
> NNC(=O)c1cccc(S(=O)(=O)Nc2cc(Cl)ccc2Cl)c1
  i | 1.6
> C/C(N)=C(/C#N)C(=O)COC(=O)CCSc1ccccc1Cl
  i | -0.02

Next section
KCNQ2 inh	KCNQ2 inh baseline	Compound
i	0.19	O=C(NC1CCCC1)c1ccc(Br)c(S(=O)(=O)N2CCCCC2)c1
i	0.17	CCc1cccc(C)c1NC(=S)NCc1ccc2c(c1)cc(C)n2C
i	-0.39	CCOC(=O)c1cn[nH]c1N
i	-0.06	COc1ccccc1C(CC(=O)O)NS(=O)(=O)c1ccc2c(c1)N(C(C)=O)CC(C)O2 (configuration not stated)
i	-2.2	COc1cc(/C=C(\C#N)c2ccccn2)ccc1OCC(=O)Nc1ccc(Br)cc1
i	-0.03	Cc1ccc(Cl)cc1NC(=O)CN1CCN(S(=O)(=O)N2CCC(C)CC2)CC1
i	0.03	CCCCc1ccc(/C=C2/C(=O)ON=C2c2ccccc2)s1
i	1.7	Nc1ccc(-c2n[nH]c(=O)c3ccccc23)cc1N
i	1.5	CCOC(=O)c1cn(-c2ccc([N+](=O)[O-])cc2)c2cc(Cl)c([N+](=O)[O-])cc2c1=O
i	0.25	NC(=O)c1ccc(NC(=O)CNCc2ccccc2Cl)cc1
i	-0.77	Cc1ccc(/C=C(\C#N)C(=O)NCC2CCCO2)o1 (configuration not stated)
i	-0.93	CCC(CC)NC(=O)c1cc([N+](=O)[O-])ccc1N1CCOCC1
i	-0.11	CCOC(=O)C1CCCCN1S(=O)(=O)c1cc2c(cc1C)NC(=O)CO2 (configuration not stated)
i	-0.6	Cc1ccccc1-n1c(SCC(=O)N(C)C2CCS(=O)(=O)C2)nnc1-c1ccncc1 (configuration not stated)
i	4.8	N#C/C(=C\c1ccc(O)c(O)c1)C(=O)Nc1cccc2ncccc12
i	-0.42	COc1ccc(CN2C(=O)c3ccccc3C(/C=N/OCc3ccc(Cl)cc3)C2=O)cc1 (configuration not stated)
i	-1.9	CCCCC(=O)N(c1ccc(C(=O)O)cc1)c1nc(-c2ccc(Cl)cc2)c(CC)s1
i	0.8	COC(=O)C(C)n1nc(C)n(-c2ccc(C)cc2)c1=O (configuration not stated)
i	-0.63	Nc1nnc(-c2ccncc2)s1
i	-0.51	CCOc1ccc(NC(=O)C(CC(=O)O)Cc2ccccc2)cc1 (configuration not stated)
i	-0.32	COc1ccc(/C=C/C(=O)NCC(=O)N=Nc2c(O)[nH]c3ccc([N+](=O)[O-])cc23)cc1
i	1.7	Cc1ccc2c(c1)C(=O)CC1(CCCC1)O2
i	-0.69	Cc1ccc(OCc2nnc(SCC(=O)Nc3nccs3)n2-c2ccccc2)cc1C
i	-0.82	CCOc1ccc(C(C)NC(=O)c2cccnc2OCC)cc1OCC (configuration not stated)
i	0.71	Cc1ccc2nc(NC(=O)C3CCN(S(=O)(=O)c4cnc[nH]4)CC3)sc2c1
i	1.4	CC(C)(C)CN1CCNC[C@H]1Cc1cccc2ccccc12
i	0.01	Cc1cccc(NC(=S)NCCc2ccccc2)c1C
i	0.1	CC(NC(=O)c1ccc([N+](=O)[O-])cc1Cl)C1CC2CCC1C2 (configuration not stated)
i	-0.02	CCOc1ccc(NC(=S)N(CCc2c(C)[nH]c3ccccc23)Cc2ccco2)cc1
i	-0.32	COc1ccc(-c2nnc(-c3cc4c(ccc5ccccc54)oc3=O)o2)cc1
i	0.73	O=C(Nc1nnc(-c2ccccc2)s1)c1ccc(Cl)c(S(=O)(=O)N2CCOCC2)c1
i	-0.04	O=c1c2ccccc2c(-c2ccccc2)nn1-c1ccccn1
i	-2.3	CN1CCN(c2nc(-c3cccnc3)nc3scc(-c4ccccc4)c23)CC1
i	1.4	c1ccc2c(CSCCc3ccncc3)cccc2c1
i	-1.4	O=C(NCCOc1ccc(F)cc1)C1CCC(=O)N(CCCN2CCOCC2)C1 (configuration not stated)
i	0.43	O=C(COc1ccc(Cl)cc1)NCc1n[nH]c(=O)c2ccccc12
i	0.42	O=C(NC(=S)Nc1ccccc1)c1cc([N+](=O)[O-])ccc1N1CCOCC1
i	1.3	CC1=Nn2c(nnc2C2CCCCC2)SC1

Assay outcomes from PubChem.
